Source: PubChem BioAssay (several laboratories)
Vif A3G: HIV-1 Vif–A3G interaction blockers – biochemical, TR-FRET, GST-Vif 1-94, biotin-A3G peptide, dose response retest, primary screen (AID 1117319). TR-FRET GST-Vif / biotin-A3G peptide binding; higher % means a stronger effect; test concentration not given here; strong numbers were not always called active. one-dose inhibition, %; IC50 in µM for titrated hits. actives 0.57% (n = 260,000);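 active = above the screen mean plus three standard deviations and confirmed in dose response; inconclusive = results disagree or hit not tested in dose response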;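 also: Vif residues 1-94 fused to GST binding biotinylated APOBEC3G peptide 110-148; 0% = full assay without inhibitor and 100% = GST in place of GST-Vif; retest series ran down from 100 µM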
Bfl-1 A1 inh: inhibitors of the anti-apoptotic protein A1, read as caspase activation; MEF A1-2A-BIM cells, Caspase-Glo 3/7 luminescence, 3 h; percent of clofoctol response, vehicle zero; caspase activation, % (no concentration beside the values); actives 0.066% (n = 330,000); AID 2462;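 active = over half of replicate activation scores above 10%, or exactly half above 10 with the replicate mean above 10; inconclusive = replicate mean below 10 yet half the replicates above 10; inactive = over half of replicates below 10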;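 also: wells of about 30 µL received 50 nL stock; many hits fall short of the cut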
LANA-H2B inh: blocks KSHV LANA binding to histone H2A/H2B; inhibition, % (concentration not given with the values); actives 0.6% (n = 320,000); Q9QR71; AID 2629; cell-free LANA-H2A/H2B peptide, fluorescence polarization; in the data active = inhibition mostly above about 10%, no sharp cut-off; inactive = mostly below about 6.7%;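 also: stock transfer was 7.5 nL into about 10 µL; 0% = median of vehicle wells and 100% = median of positive control wells; one replicate is shown; the record names a cut of 25% in any replicate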
B2AR ag: human beta-2 adrenergic receptor agonism by FAP; Am2.2-beta2AR cells, FAP receptor internalization, flow cytometry; reference of the scale not given here; response, % (no concentration beside the values); actives 0.43% (n = 340,000); AID 504454;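 active = response above a set limit, near 3 SD of response in nonfluorescent compounds, cut at about 42% in these data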;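 also: stock transfer was 100 nL into about 11 µL; a reference agonist was the positive control; negative values mostly stem from fluorescent compounds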
Target sequence (P07550 whole entry, looked up): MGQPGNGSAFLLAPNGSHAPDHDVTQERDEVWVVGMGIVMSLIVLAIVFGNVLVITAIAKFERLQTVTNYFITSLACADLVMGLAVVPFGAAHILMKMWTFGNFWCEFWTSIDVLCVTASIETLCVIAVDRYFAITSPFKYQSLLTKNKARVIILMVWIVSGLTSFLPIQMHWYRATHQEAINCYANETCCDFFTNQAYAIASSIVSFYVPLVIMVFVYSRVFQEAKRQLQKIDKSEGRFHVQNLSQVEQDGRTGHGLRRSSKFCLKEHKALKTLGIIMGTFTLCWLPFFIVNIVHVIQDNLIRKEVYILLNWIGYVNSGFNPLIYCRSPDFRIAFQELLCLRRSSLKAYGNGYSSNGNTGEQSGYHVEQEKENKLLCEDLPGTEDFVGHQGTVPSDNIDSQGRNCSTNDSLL
E coli growth: inhibitors of Escherichia coli growth. OD600, 23 h; active compounds read low. OD600 absorbance (no concentration beside the values). actives 0.21% (n = 330,000). AID 1053175;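 active = OD600 absorbance below the run mean of sample wells minus 3.6 SD, in any replicate, cut at about 0.56 in these data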;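 also: stock transfer was 300 nL into about 60 µL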
HNF4A DNA FP: change in binding of human HNF4 alpha to DNA | P41235 | HNF4a-FITC DNA binding, fluorescence polarization, 1 h | activity change, % at 10 µM | actives 0.3% (n = 360,000) | AID 1224865; in the data active = activity change above about 30%, passing the limit was not always enough;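 also: controls were the assay level and a saturating level of protein; the project sought stronger binding though the title names inhibitors; some compounds called inactive have numbers as strong as hits; positive values seem to mean higher polarization but the record does not say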
UCH37 DUB inh: blocks the human deubiquitinase UCH37. inhibition, % (concentration not given with the values). purified proteasome/UCH37, Ub-AMC cleavage fluorescence. actives 0.33% (n = 330,000). Q9Y5K5;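 active = mean of two replicates above 20%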;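 also: 0% = compound-free wells with enzyme and 100% = wells lacking proteasome; stock transfer was 100 nL into about 20 µL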
Target sequence (Q9Y5K5 whole entry, looked up): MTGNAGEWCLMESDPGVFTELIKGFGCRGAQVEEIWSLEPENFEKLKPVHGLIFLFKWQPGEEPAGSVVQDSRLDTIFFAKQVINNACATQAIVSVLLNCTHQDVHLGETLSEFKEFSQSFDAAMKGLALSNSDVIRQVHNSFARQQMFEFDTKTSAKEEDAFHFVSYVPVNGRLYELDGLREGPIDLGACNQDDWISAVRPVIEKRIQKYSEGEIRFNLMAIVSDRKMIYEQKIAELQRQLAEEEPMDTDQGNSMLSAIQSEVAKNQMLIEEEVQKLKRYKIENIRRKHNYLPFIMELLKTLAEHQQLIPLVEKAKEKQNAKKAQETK
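Signal – fluorescence, ex 355 nm, em 460 nm · System – Proteasome-bound UCH37 · Input – 0.15 nM proteasome as dispensed · Timing – 30 min preincubation with enzyme, 25 min cleavage at room temperature · Read-out basis – percent inhibition of cleavage signal versus uninhibited and no-proteasome wells · Medium – Tris-HCl pH 7.4 with ATP-MgCl2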
Active calls of the source: *; ? = inconclusive; · = not tested or not shown.

SMILES	Vif A3G	Bfl-1 A1 inh	LANA-H2B inh	B2AR ag	E coli growth	HNF4A DNA FP	UCH37 DUB inh
O=C(CN1CCCCCCC1)NC(=O)NC1CCCCC1	5%	-0.1	-1.2	-15	0.72	1.6	2.1
COc1ccc(C(=O)Nc2cccc(C(C)=O)c2)cc1S(=O)(=O)N1CCOCC1	4%	0.5	1.4	3	0.7	-0.5	1.8
Cn1cc(S(=O)(=O)N2CCN(c3ccccc3F)CC2)c(=O)n(C)c1=O	0%	-0.3	7.6	12	0.78	-6.8	3.0
Cc1cccc(-c2nc3c(c(SCC(=O)N4CCOCC4)n2)CCCC3)c1	-3%	-0.8	-2.0	-6	0.75	0.2	1.5
O=C(Nc1cccc(-n2cnnn2)c1)c1cccnc1	·	-1.8	-2.4	-6	0.69	-4.1	3.8
O=C(C1CCN(c2ncnc3c2nc2n3CCCCC2)CC1)N1CCCCC1	·	0.8	1.4	3	0.68	4.8	5.5
CC(C)C12CN3CC(C(C)C)(CN(C1)C3c1ccccc1O)C2=O (stereo unspecified)	2%	-0.8	-4.8	-1	0.7	-1.4	2.7
CCOC(=O)N1CCN(C2CC(=O)N(c3ccc(Oc4ccccc4)cc3)C2=O)CC1 (stereo unspecified)	-1%	-0.3	-1.7	-26	0.74	2.4	5.9
O=c1c2ccccc2[nH]c(=S)n1Cc1cccnc1	-3%	0.3	8.8	-31	0.66	0.2	2.7
O=C(NCC1CC1)c1ccc(Nc2nc3ccc(Br)cc3[nH]2)cc1	0%	-0.3	-0.3	8	0.57	2.4	1.6
CCC(=O)c1ccc(OCCSc2ncccn2)cc1	-1%	-3.6	-2.2	-4	0.71	-2.1	2.2
COc1ccccc1NS(=O)(=O)c1cccc(C(=O)N2CC(C)OC(C)C2)c1 (stereo unspecified)	-10%	0.0	-2.0	0	0.71	-2.6	-1.0
O=C(O)CNC(=O)c1ccccc1F	-5%	0.6	-3.7	1	0.67	-3.6	1.1
Cc1cccc2cc(CN(Cc3nnnn3Cc3ccco3)C3CCCC3)c3nnnn3c12	17%	-0.5	1.8	8	0.76	0.2	0.5
O=c1c2ccccc2nc(-c2cccs2)n1-c1cccc2ccccc12	-8%	0.2	1.3	-7	0.66	-1.4	-1.4
COc1ccc(OCc2cccc(C(=O)NN)c2)cc1	-10%	-2.0	4.3	-2	0.69	-1.3	-0.4
O=C(Nc1cn(-c2ccccc2)nc1-c1ccc(Cl)cc1)c1ccccc1	7%	0.6	2.0	5	0.65	0.8	5.3
O=C(/C=C/Nc1ccc(F)cc1)c1ccco1	10%	0.2	3.4	-1	·	-2.2	2.0
CC(C)(C)c1ccc(CS(=O)(=O)CC2(O)CCN(C(=O)c3cccc(C(F)(F)F)c3)CC2)cc1	0%	0.5	-0.2	-3	0.69	1.3	-0.4
COC(=O)CN(C)C(=O)c1ccc(OC)c(OC2CCN(C(C)C)CC2)c1	·	0.5	-4.4	3	0.7	-0.5	4.5
Cc1cc(Cl)ccc1OC(C)C(=O)Nc1ccccc1N1CCOCC1 (stereo unspecified)	19%	1.3	-4.5	1	0.69	1.2	2.5
COc1ccc(/C=C(\C#N)C(=O)OCC(=O)Nc2ccc(C(C)(C)C)cc2)cc1	·	0.7	·	4	0.64	-0.1	3.2
CC(C)c1ccc(/C=C2\Oc3c(ccc(O)c3CN3CCN(C)CC3)C2=O)cc1	-2%	0.7	0.6	-2	0.71	4.8	-61
CC(=O)CCc1c(C)nc2ccc(C(=O)O)cc2c1Cl	29%	0.3	3.2	2	0.7	-2.6	-6.1
Cn1c(=O)[nH]c(=O)c2c1nc(N1CCCC1)n2CC(O)COc1ccccc1 (stereo unspecified)	-3%	-0.3	2.7	4	0.77	0.0	4.1
O=C(CCS(=O)(=O)c1ccccc1)Nc1ccc(S(=O)(=O)Nc2ncccn2)cc1	·	-1.6	-7.9	9	0.68	1.5	0.9
Clc1ccc(-c2csc(N/N=C/c3cccnc3)n2)c(Cl)c1	1%	-0.8	0.9	40	·	-8.0	·
O=C(CSc1nnc(COc2ccccc2)o1)N1CCCC1	?	-0.2	-3.3	-8	0.65	0.7	0.2
Cc1ccc(CNc2nc3ccccc3n2C)cc1	?	-7.4	2.8	-14	·	2.3	·
Cc1nn(-c2ccccc2)c2sc(C(=O)OC3CCOC3=O)cc12 (stereo unspecified)	3%	-0.3	-1.0	-4	0.76	-2.3	-18
O=C(Nc1cccnc1)c1ccccc1-c1nc(-c2ccccc2F)no1	3%	1.6	-2.3	-6	0.67	-1.5	4.1
CCOC(=O)c1sc(/N=C/c2ccc(O)cc2O)cc1C	-7%	-0.5	-2.9	33	·	9.6	·
CCCc1nnc(SCc2ccc(OC)cc2)n1N	-4%	0.9	-2.9	-1	0.67	1.8	3.7
COC(=O)c1ccc(Sc2ccc(Cl)cc2)c(N)c1	-5%	0.7	-3.7	-1	0.66	-2.4	-100
CC(C)CNS(=O)(=O)c1ccc(Br)cc1N1CCC[C@@H]1CO	-1%	·	·	10	0.69	2.9	0.8
Cc1cc2ncc(Cl)nc2cc1C	11%	-0.5	-5.7	2	0.65	3.1	-5.7
Fc1ccc(-n2c(Cc3ccccc3)nnc2SCc2nc(-c3ccc(Cl)cc3)no2)cc1	-2%	0.2	-5.1	10	0.7	-3.1	-1.4
CCOc1ccc(S(=O)(=O)N2CCc3ccccc3C2)cc1	15%	0.3	-4.5	2	0.69	2.5	0.2
CCCCCCSc1ccc([C@H]2N[C@@](CC(C)C)(C(=O)OC)[C@H]3C(=O)N(CC)C(=O)[C@@H]23)cc1	·	-0.1	3.0	-6	·	-1.3	0.3
COc1ccc(NC(=O)c2ccc(N3C(=O)C4CC=C(Cl)CC4C3=O)cc2)cc1 (stereo unspecified)	·	0.2	0.6	1	0.65	2.5	2.1
Cc1ccc(OCC(=O)NC2CCCC2)c(C)c1	-2%	1.2	1.1	-2	0.75	-1.9	4.4
CN(C)S(=O)(=O)c1ccc2c(c1)nc(CCC(=O)NCCc1ccc(Cl)cc1)n2C	-7%	1.2	-3.7	-2	0.69	-1.9	-0.1
CCc1cc(SC#N)cc(C)c1N	2%	0.6	4.2	-8	0.68	-0.1	9.6
Cc1cc(C)nc(N(C#N)Cc2ccc([N+](=O)[O-])cc2)n1	6%	-0.7	-2.5	1	0.63	-2.2	0.5
CC1CCC(NC(=O)Nc2cccs2)CC1 (stereo unspecified)	?	0.9	-1.0	-20	0.66	6.7	0.1
CC1(C)Cc2c(sc3[nH]c(=O)n(CC(=O)NCC4CCCO4)c(=O)c23)CO1 (stereo unspecified)	0%	2.4	-5.7	-6	0.71	0.1	-0.2
CCOC(=O)C(=O)Nc1ccccc1C(N)=O	-2%	0.8	0.7	-3	0.69	-2.1	2.8
Cc1cccc(C)c1NC(=O)CNC(=O)c1c(C)nn(-c2ccccc2)c1Cl	-8%	-0.2	·	2	0.65	2.2	2.2
O=C(CN1C(=O)NC2(CCCC2)C1=O)N1CCN(Cc2ccccc2)CC1	0%	-0.3	-0.2	4	0.67	-3.7	2.5
Cc1sc2ncn(CC(=O)N3CCCCC3)c(=O)c2c1C	·	0.6	-3.7	-5	0.69	2.7	4.3
Further entries
SMILES	Vif A3G	Bfl-1 A1 inh	LANA-H2B inh	B2AR ag	E coli growth	HNF4A DNA FP	UCH37 DUB inh
O=C(NCCC(=O)N1CCC2(CC1)NCCc1[nH]cnc12)c1cccc(Cl)c1	·	0.8	3.8	-3	0.7	1.7	3.3
COc1ccc(N(CC(=O)NC2CCCC2)C(=O)c2ccc(C)s2)cc1OC	·	0.3	0.0	-3	0.66	2.1	2.1
Cc1ccc(-c2nc3ccc(NS(=O)(=O)c4ccccc4)cc3[nH]2)o1	6%	-2.7	-0.5	-5	0.66	2.5	3.5
Nc1ccc(OC(=O)Nc2ccc(O)cc2)cc1	-5%	-0.3	0.5	-6	0.64	0.0	1.9
CCCCC(=O)NS(=O)(=O)c1ccc(N=NN(CC)CC)cc1	·	0.2	3.9	4	0.69	1.4	6.1
CCCS(=O)(=O)N1CCCC(C(=O)NC(C)c2ccc3c(c2)OCCO3)C1 (stereo unspecified)	3%	0.3	1.0	-17	0.7	0.7	0.0
CC(=O)Nc1ccc(NC(=O)CN(C)S(=O)(=O)c2ccc3c(c2)CCC(=O)N3)cc1	2%	0.6	-8.7	-6	0.67	-2.5	-1.6
CC1CN=C(N(C(=O)Nc2ccccc2)c2ccc(S(=O)(=O)N3CCOCC3)cc2)S1 (stereo unspecified)	6%	-2.5	-2.4	-10	0.74	1.0	-0.6
CN(C)c1ccc(/C=N/n2c(-c3cccnc3)n[nH]c2=S)cc1	?	-1.3	-2.2	-4	·	0.5	·
O=c1cc(-c2ccc(O)c(O)c2)oc2c(C3O[C@H](CO)[C@@H](O)[C@H](O)[C@H]3O)c(O)cc(O)c12 (stereo partly specified)	·	-0.2	2.4	-8	·	2.2	5.1
CCC(=O)N1C(Cc2ccccc2)COC1(C)C (stereo unspecified)	1%	0.5	·	-1	0.63	-1.3	1.1
C[C@H](NC(=O)c1nc[nH]c1C(=O)N[C@@H](CCCCNC(=O)OC(C)(C)C)C(=O)OC(C)(C)C)C(=O)OC(C)(C)C	·	0.2	1.0	3	·	1.5	4.4
NC(=O)C1CCN(C(=O)c2ccc(-c3ccccc3Cl)o2)CC1	-2%	-0.5	4.8	3	0.69	0.5	3.0
COc1ccc(C2C=C(C)Nc3ncnn32)cc1 (stereo unspecified)	·	-0.5	0.9	-9	0.68	0.9	-23
O=C1CCCc2ccccc2N1Cc1cccc(F)c1	-5%	0.9	1.4	1	0.69	-2.2	1.0
CCOC(=O)c1c(-c2ccc(-c3ccccc3)cc2)csc1NC(=O)c1cccc(N2C(=O)CCC2=O)c1	·	-0.5	0.3	-2	0.73	5.1	-38
O=C(COC(=O)/C=C/c1ccc(OC(F)F)cc1)Nc1cccc(S(=O)(=O)N2CCCC2)c1	2%	-0.9	-0.8	5	0.66	5.3	6.9
COc1ccc(C2CC(c3ccc(OC)cc3)n3nc(N)nc3N2)cc1 (stereo unspecified)	0%	-0.8	5.4	5	0.72	-4.4	-4.9
OC(COc1ccccc1F)CN1CCC(Cc2ccccc2)CC1 (stereo unspecified)	·	-0.7	-1.7	11	0.64	3.4	3.2
CC(C)Cc1nnc(NC(=O)CSc2nc(N)cc(=O)[nH]2)s1	24%	0.1	4.9	3	0.68	-2.0	3.5

Full records, quoted from the list. Screens in order: Vif A3G | Bfl-1 A1 inh | LANA-H2B inh | B2AR ag | E coli growth | HNF4A DNA FP | UCH37 DUB inh
Profile of `O=C1CCCc2ccccc2N1Cc1cccc(F)c1` → -5% | 0.9 | 1.4 | 1 | 0.69 | -2.2 | 1.0
Profile of `COc1ccc(C2C=C(C)Nc3ncnn32)cc1` (stereo unspecified) → · | -0.5 | 0.9 | -9 | 0.68 | 0.9 | -23
Profile of `CCC(=O)N1C(Cc2ccccc2)COC1(C)C` (stereo unspecified) → 1% | 0.5 | · | -1 | 0.63 | -1.3 | 1.1

Going on with the list:
SMILES	Vif A3G	Bfl-1 A1 inh	LANA-H2B inh	B2AR ag	E coli growth	HNF4A DNA FP	UCH37 DUB inh
CCN(CC)S(=O)(=O)c1ccc(OC)c(NC(=O)c2cc([N+](=O)[O-])ccc2Cl)c1	-2%	1.6	-2.3	6	0.72	-2.2	2.5
NC(=O)C1CCN(CC(O)COc2ccc(-c3ccccc3)cc2)CC1 (stereo unspecified)	·	1.0	-6.4	6	0.65	-2.0	1.2
CC(=O)Nc1ccc(N2CCN(C(C)=O)CC2)cc1	25%	-0.6	-8.8	12	0.69	-2.1	4.3
Cc1cccc(C(=O)NCCC(=O)Nc2ccc(C)c(F)c2)c1	·	0.0	-1.3	8	0.66	-2.9	2.4

No enrichment for hits. Share with any hit: about 2.1%.
